PKD1 inh: inhibitors of human PKD1 kinase; inhibition, %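 (about 10 µM by stock and volumes)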; actives 0.056% (n = 200,000); Q15139; PKD1 kinase fluorescence polarization assay;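 active means inhibition of 50% or more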;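 further: controls were vehicle for no effect and a reference inhibitor for full effect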
HSV augment: HSV replication enhancement. maximum fold increase. HSV replication augmentation in cells, fold increase. AID 1956. actives 0.005% (n = 220,000);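 active means peak rise of 1.5-fold or more in the series; tested in PC3 cells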;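 further: first round at 10 µM; read as green reporter fluorescence; hits show the peak of a series up to 25 µM; 1 = signal of infected wells without compound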
Insulin prom inh: TRM-6 insulin promoter activity inhibition; actives 0.9% (n = 130,000); inhibition, % at 2 µM; AID 1273; TRM-6 cells (human fetal islet line), insulin promoter-eGFP reporter, imaging; reporter expression induced with tamoxifen;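 active means inhibition above the mean plus 3 SD, with well images judged a real hit on visual review, cut at about 60% in these data, passing the limit was not always enough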
RGS16-Gao HTS: regulators of human RGS16-Galphao interaction; binding response (% of control), % at 10 µM; actives 0.38% (n = 220,000); O15492+P09471; bead-based flow cytometry RGS16-Galphao binding, fluorescence; actives lie on both sides;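 active means below 25% or above 175%, edge rows of some plates excepted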;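 further: Galphao activated by GDP with aluminum fluoride before binding; 100% = wells without compound and 0% = beads without RGS; some results beyond the cut were filed as inactive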
Target sequence (O15492 whole entry, looked up): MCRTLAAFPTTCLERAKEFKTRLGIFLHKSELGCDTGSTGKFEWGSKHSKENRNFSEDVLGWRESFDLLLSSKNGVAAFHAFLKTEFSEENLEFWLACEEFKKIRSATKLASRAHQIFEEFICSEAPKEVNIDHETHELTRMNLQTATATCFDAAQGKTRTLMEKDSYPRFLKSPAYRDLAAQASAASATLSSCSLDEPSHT
Target sequence (P09471 whole entry, looked up): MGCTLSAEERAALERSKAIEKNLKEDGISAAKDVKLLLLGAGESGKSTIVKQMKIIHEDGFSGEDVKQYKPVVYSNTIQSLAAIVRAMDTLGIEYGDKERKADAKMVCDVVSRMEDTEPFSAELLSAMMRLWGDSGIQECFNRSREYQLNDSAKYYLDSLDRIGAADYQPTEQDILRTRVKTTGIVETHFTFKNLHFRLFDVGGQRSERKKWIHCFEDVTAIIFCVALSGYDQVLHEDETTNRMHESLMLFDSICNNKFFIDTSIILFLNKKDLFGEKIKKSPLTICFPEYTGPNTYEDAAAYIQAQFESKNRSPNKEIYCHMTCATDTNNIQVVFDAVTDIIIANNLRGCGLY
GALR2 agonist: activates the human galanin receptor 2; activation, %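 (tested at 5 µM)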; actives 0.48% (n = 140,000); O43603; GALR2-expressing cells, agonist activation read-out;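 active means above mean plus 3 SD of all compounds, about 5% in these data, not always enough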;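 further: 0% = vehicle buffer wells and 100% = reference agonist at full effect; tested in CHO reporter cells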
Target sequence (O43603 whole entry, looked up): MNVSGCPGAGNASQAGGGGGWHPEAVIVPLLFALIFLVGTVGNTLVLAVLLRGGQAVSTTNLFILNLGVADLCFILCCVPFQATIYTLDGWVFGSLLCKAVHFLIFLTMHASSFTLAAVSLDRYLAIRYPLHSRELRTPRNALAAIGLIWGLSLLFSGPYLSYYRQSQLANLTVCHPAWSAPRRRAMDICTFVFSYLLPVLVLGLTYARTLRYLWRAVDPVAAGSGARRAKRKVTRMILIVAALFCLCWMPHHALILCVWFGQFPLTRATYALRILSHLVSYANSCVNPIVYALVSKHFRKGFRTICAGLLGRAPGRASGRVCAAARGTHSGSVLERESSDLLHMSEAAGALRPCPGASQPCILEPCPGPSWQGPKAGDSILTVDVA
Insulin prom inh cell count: also measured in Insulin prom inh; calls as there; normalized cell count, %; measured here: cell count, toxicity; reference of the scale not given here;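 cells exposed to compound for 48 h; stained nuclei by imaging scaled within each plate; lower means fewer cells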
HSV augment primary fold: second read-out of HSV augment, no call of its own (marks repeat the call); fold increase; compound at 10 µM; measured here: primary screen fold increase 10 uM; tested in PC3 cells;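 GFP signal in the first replicate; 1 = infected wells without compound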
Starred values were filed as active, the others as inactive; i = inactive; / = no result given; [ ] = dose if it differs, or a comment.

Value order – PKD1 inh, HSV augment, HSV augment primary fold, Insulin prom inh, Insulin prom inh cell count, RGS16-Gao HTS, GALR2 agonist
CCN(CC)S(=O)(=O)c1ccc(O)c(C(=O)OCC(=O)Nc2cc(C)c(C)cc2[N+](=O)[O-])c1
→ -7, i, 0.94, /, /, 99, /
COc1ccc(N2C(=O)/C(=C/c3ccc([N+](=O)[O-])cc3)C=C2c2ccccc2)cc1
→ -5, i, 0.96, -29, 104, 99, -2.1
Cc1ccc(C)c(N2CCN(C(=O)CCCN3C(=S)NC(C)(C)CC3C)CC2)c1 (stereo not drawn)
→ 12, i, 1, -38, 150, 112, -0.1
CC1CCCCN1c1nc(-c2ccncc2)nc2ccccc12 (stereo not drawn)
→ -15, i, 0.75, 15, 97, 100, -2.2
Cn1c(COc2ccccc2)nnc1SCC(=O)Nc1ccc(N2CCOCC2)c(Cl)c1
→ -4, i, 1.1, 27, 100, 99, -1.3
CCCOC(=O)/C(=C\C=C\c1ccccc1)NC(=O)c1ccccc1
→ -5, i, 0.85, /, /, 104, /
Cc1ccc(S(=O)(=O)N/N=C\c2ccc3c(c2)OCO3)cc1
→ -10, i, 0.96, 4, 77, 88, -0.1
COCCCN(Cc1ccco1)C(=O)Cn1ncc2c(=O)oc3ccc(C)cc3c21
→ /, i, 1, /, /, 97, /
O=C(NCc1cccnc1)C(=O)NCC1OCCN1S(=O)(=O)c1ccccc1 (stereo not drawn)
→ -7, i, 0.86, -7, 99, 98, -0.1
COc1cc2c(cc1OC)CN(Cc1cccs1)CC2
→ -5, i, 0.98, -31, 68, 103, -0.6
C=CCOc1ccc2cccc(/C=N/NC(=O)c3cc4cc([N+](=O)[O-])ccc4s3)c2c1
→ -17, i, 0.75, /, /, 102, -1.7
O=C(CCC1CCCN(Cc2ccncc2)C1)NCc1ccc(F)c(F)c1 (stereo not drawn)
→ 8, i, 1.1, /, /, 105, /
CCOC(=O)N1CCC(NC(=O)CCC(=O)N2CC(C)Oc3ccc(Cl)cc32)CC1 (stereo not drawn)
→ -6, i, 0.9, -16, 100, 107, 0.0
CCN(CC)CCN(C(=O)C1=COCCO1)c1nc2cc3c(cc2s1)OCO3
→ -6, i, 0.94, -12, 89, 101, /
Cc1cccc(C2c3[nH]c4ccccc4c3CCN2C(=O)c2ocnc2C)n1 (stereo not drawn)
→ 3, i, 1, -38, 91, 99, /
Cc1cccc(C)c1NC(=S)NN1CCN(C)CC1
→ -5, i, 1, /, /, 101, -1.1
Cc1ccc(NC(=O)COc2ccccc2)c(NC(=O)c2ccccc2C)c1
→ 12, i, 1, -110, 104, /, -5.2
Cc1ccc(NC(=O)c2oc3ccccc3c2NC(=O)C2CCCO2)cc1C (stereo not drawn)
→ 3, i, 0.85, /, /, 105, /
O=C(O)/C=C/c1cn(-c2ccccc2)nc1-c1cccc([N+](=O)[O-])c1
→ /, i, 1, /, /, 103, /
NC(=O)Cc1nc(-c2ccccc2)cs1
→ 9, i, 0.97, -44, 121, 105, -1.3
CCN(CC)S(=O)(=O)c1ccc(Cl)c(NC(=O)c2ccc(C#N)cc2)c1
→ -4, i, 1, -38, 90, 108, -0.6
COc1ccc(C(=O)CSc2nnc(NC(=O)C3CC(=O)N(c4cccc(OC)c4)C3)s2)cc1 (stereo not drawn)
→ 2, i, 0.98, 39, 88, 101, 1.1
CC1CN(CCOc2ccccc2-c2ccccc2)CC(C)O1 (stereo not drawn)
→ -1, i, 0.95, -7, 134, 95, -0.9
COc1cc(OC)cc(-c2nnc(Nc3nc4c(F)cccc4s3)o2)c1
→ 2, i, 0.77, -65, 28, 98, 0.2
CC(C)C(C(=O)N1CCOCC1)N1C(=O)c2ccccc2C1=O (stereo not drawn)
→ 1, i, 1, 61, 102, 99, -0.9
CCOc1ccc2ncc(C(=O)c3ccc(OC)cc3)c(N3CCN(CC)CC3)c2c1
→ -5, i, 0.94, /, /, 284*[activator], /
Cc1cccc(NC(=S)N=Nc2c(O)[nH]c3ccccc23)c1
→ -5, i, 0.88, -47, 68, 100, -0.7
CC(C)(C)OC(=O)NNC(=O)NC12CC3CC(CC(C3)C1)C2
→ 0, i, 1.1, -31, 52, 90, /
CCOC(=O)CSc1nnc(CNC(=O)c2cccs2)n1-c1ccccc1
→ -3, /, /, /, /, 118, -1.1
O=c1[nH]c2cc(S(=O)(=O)CCO)ccc2o1
→ /, i, 0.99, /, /, 105, /

An excerpt from above in order of heavy-atom count, lowest first:
Value order – PKD1 inh, HSV augment, HSV augment primary fold, Insulin prom inh, Insulin prom inh cell count, RGS16-Gao HTS, GALR2 agonist
O=c1[nH]c2cc(S(=O)(=O)CCO)ccc2o1
→ /, i, 0.99, /, /, 105, /
Cc1cccc(C)c1NC(=S)NN1CCN(C)CC1
→ -5, i, 1, /, /, 101, -1.1
CC1CN(CCOc2ccccc2-c2ccccc2)CC(C)O1 (stereo not drawn)
→ -1, i, 0.95, -7, 134, 95, -0.9
O=C(O)/C=C/c1cn(-c2ccccc2)nc1-c1cccc([N+](=O)[O-])c1
→ /, i, 1, /, /, 103, /
COc1cc(OC)cc(-c2nnc(Nc3nc4c(F)cccc4s3)o2)c1
→ 2, i, 0.77, -65, 28, 98, 0.2
CCOC(=O)CSc1nnc(CNC(=O)c2cccs2)n1-c1ccccc1
→ -3, /, /, /, /, 118, -1.1
Cc1ccc(NC(=O)c2oc3ccccc3c2NC(=O)C2CCCO2)cc1C (stereo not drawn)
→ 3, i, 0.85, /, /, 105, /

Carrying on.
Letters – A = PKD1 inh; B = HSV augment; C = HSV augment primary fold; D = Insulin prom inh; E = Insulin prom inh cell count; F = RGS16-Gao HTS; G = GALR2 agonist
COc1ccc(-c2nn3c(-c4ccncc4)nnc3s2)cc1OC
  A: 1	B: /	C: /	D: 18	E: 100	F: /	G: 0.4

Cc1cc(C)c2oc(=O)cc(CN3CCN(Cc4ccc5c(c4)OCO5)CC3)c2c1
  A: -8	B: i	C: 0.87	D: 9	E: 47	F: 101	G: 0.7

COc1ccccc1C(C#N)N1N=C(C)CC1(C)C (stereo not drawn)
  A: -6	B: i	C: 1.2	D: 0	E: 88	F: 106	G: /

O=C(Nc1nccs1)C1CC2CCC1C2 (stereo not drawn)
  A: -3	B: i	C: 0.95	D: 14	E: 133	F: 94	G: -3.2

CCc1nnc(NC(=O)CSc2nc(-c3ccccc3)c(-c3ccccc3)o2)s1
  A: -4	B: i	C: 0.67	D: 62	E: 112	F: 103	G: 0.0

Cc1ccc2c(CN3CCN(Cc4ccc5c(c4)OCO5)CC3)cc(=O)oc2c1C
  A: -3	B: i	C: 0.67	D: /	E: /	F: 94	G: -1.5

O=C(CN1CCOCC1)Nc1cc([N+](=O)[O-])ccc1Cl
  A: -4	B: i	C: 0.95	D: 40	E: 202	F: 102	G: /

O=S(=O)(NC(=NCc1ccccc1)c1ccc(F)cc1)c1ccc(Cl)cc1
  A: -10	B: i	C: 0.96	D: /	E: /	F: 93	G: /

O=C(Nc1cccc2c1CCCC2)c1ccc(Cl)c([N+](=O)[O-])c1
  A: -1	B: i	C: 0.76	D: -13	E: 110	F: 106	G: -0.6

CCOC(=O)N1CCC(NC(=O)C2CCCN(C(=O)c3cc4sccc4n3C)C2)CC1 (stereo not drawn)
  A: -5	B: i	C: 0.87	D: /	E: /	F: 103	G: -0.8

Cn1nnnc1SCC(=O)N1c2ccccc2CCc2ccccc21
  A: 6	B: i	C: 0.76	D: 33	E: 127	F: 107	G: -1.2

CCCn1c(SCC(=O)c2cc(OC)ccc2OC)nnc1-c1ccco1
  A: 6	B: i	C: 0.9	D: 0	E: 61	F: 78	G: -0.6

CC(=O)N1CCC(N2CCN(c3ccccc3F)CC2)CC1
  A: 3	B: i	C: 0.99	D: /	E: /	F: 95	G: -2.5

CN1CCN(S(=O)(=O)c2ccc(NC(=S)NC(=O)C3CC3)cc2)CC1
  A: -5	B: i	C: 0.74	D: -27	E: 83	F: 101	G: -0.1

COc1cccc(C(=O)NCCSc2ccc(F)cc2)c1
  A: 0	B: i	C: 0.92	D: 0	E: 112	F: 95	G: /

OC1CCN(Cc2cccc(Oc3ccccc3)c2)CC1
  A: 1	B: i	C: 0.74	D: 16	E: 94	F: 108	G: -1.4

CN1/C(=C\C(=O)Nc2cccnc2)c2ccccc2CC1(C)C
  A: -4	B: /	C: /	D: 17	E: 98	F: 154	G: -2.0

CC(C)CN1C(=O)/C(=C/c2cccs2)NC1=S
  A: -3	B: i	C: 0.98	D: -431	E: 56	F: 100	G: -2.4

CCc1nnc(NC(=O)c2cccnc2SC)s1
  A: 0	B: i	C: 0.91	D: /	E: /	F: 102	G: /

Cc1sc(NC(=O)c2ccc(F)cc2)c(CN2CCCCCC2)c1C
  A: 0	B: i	C: 1.3	D: -92	E: 98	F: 84	G: -2.1

CC/C(=N\NC(=O)c1ccc(CN(C)S(=O)(=O)c2ccc(C)cc2)cc1)c1ccc(OC(F)F)cc1
  A: -21	B: i	C: 0.86	D: -21	E: 101	F: 100	G: 0.3

CCOc1ccccc1N1CSC2=C(C#N)C(c3c(OC)ccc4ccccc34)CC(=O)N2C1 (stereo not drawn)
  A: 1	B: i	C: 0.91	D: /	E: /	F: 84	G: -0.6

Nc1n[nH]c(-c2ccccc2)n1
  A: -6	B: i	C: 0.9	D: 8	E: 138	F: 96	G: -4.6

CCOC(=O)c1c(C)n(C)c2ccc(OC)c(NC(=O)CCN3CCC(Cc4ccccc4)CC3)c12
  A: /	B: i	C: 0.76	D: /	E: /	F: 92	G: /

CCCNS(=O)(=O)c1ccc(OCC(=O)N2CCC(C(=O)OCC)CC2)cc1
  A: -16	B: i	C: 0.95	D: -229	E: 39	F: 95	G: -0.3

COc1cccc(Oc2ccc(N/C=C/C(=O)C(C)(C)C)cc2)c1
  A: -5	B: i	C: 0.89	D: 75*	E: 105*	F: 87	G: -0.6

Cc1ccc(F)cc1NC(=O)N1CCN(C2c3ccccc3-c3ccccc32)CC1
  A: /	B: i	C: 0.89	D: /	E: /	F: 102	G: /

O=C(O)CCCNC(=O)/C=C/c1ccco1
  A: 0	B: i	C: 1.1	D: /	E: /	F: 97	G: /

COCCn1c(SCc2ccccc2Cl)nc2c1c(=O)[nH]c(=O)n2C
  A: -12	B: i	C: 0.84	D: 21	E: 82	F: 103	G: -2.1

O=c1cc(COc2ncnc3ccccc23)nc2sccn12
  A: /	B: i	C: 1.1	D: /	E: /	F: 95	G: /

Single records (already shown).
Entry for `Cc1ccc(F)cc1NC(=O)N1CCN(C2c3ccccc3-c3ccccc32)CC1` → PKD1 inh = /; HSV augment = i; HSV augment primary fold = 0.89; Insulin prom inh = /; Insulin prom inh cell count = /; RGS16-Gao HTS = 102; GALR2 agonist = /
Entry for `CCOC(=O)c1c(C)n(C)c2ccc(OC)c(NC(=O)CCN3CCC(Cc4ccccc4)CC3)c12` → PKD1 inh = /; HSV augment = i; HSV augment primary fold = 0.76; Insulin prom inh = /; Insulin prom inh cell count = /; RGS16-Gao HTS = 92; GALR2 agonist = /
Entry for `COCCn1c(SCc2ccccc2Cl)nc2c1c(=O)[nH]c(=O)n2C` → PKD1 inh = -12; HSV augment = i; HSV augment primary fold = 0.84; Insulin prom inh = 21; Insulin prom inh cell count = 82; RGS16-Gao HTS = 103; GALR2 agonist = -2.1

More structures
Letters – A = PKD1 inh; B = HSV augment; C = HSV augment primary fold; D = Insulin prom inh; E = Insulin prom inh cell count; F = RGS16-Gao HTS; G = GALR2 agonist
COc1ccc(CNS(=O)(=O)c2cccc(S(=O)(=O)N3CCOCC3)c2)cc1
  A: 4	B: i	C: 0.73	D: -46	E: 75	F: 103	G: -1.5

COc1ccc(/C=C/C(=O)Nc2c(C)nn(C)c2C)cc1COc1ccc(Br)cc1
  A: 2	B: i	C: 0.82	D: -78	E: 69	F: 107	G: -2.7

COc1ccc(NC(=O)N2CCN(c3cccc(C(F)(F)F)c3)CC2)cc1
  A: -5	B: i	C: 0.97	D: 75*	E: 19*	F: 98	G: 2.6

COc1cc2c(cc1OC)C(c1ccccc1F)OC(=O)C2 (stereo not drawn)
  A: -8	B: i	C: 1	D: /	E: /	F: 102	G: -1.2

O=C(Nc1c(C(=O)C2CC2)oc2ccccc12)c1ccc(Cl)cc1
  A: -3	B: i	C: 0.97	D: -18	E: 116	F: 105	G: -0.7

O/N=C/c1ccnc(SCc2ccc(Cl)cc2)n1
  A: /	B: i	C: 1.1	D: /	E: /	F: 98	G: /

CCCCOc1ccc(C2CC(=O)N(C)C2=O)cc1 (stereo not drawn)
  A: 1	B: i	C: 0.96	D: 55	E: 108	F: 104	G: -1.1

Cn1c(=O)[nH]c(=O)c2c1nc(Sc1nc3ccccc3s1)n2Cc1ccccc1
  A: -15	B: i	C: 0.84	D: /	E: /	F: 101	G: -1.7

Screens from PubChem BioAssay.
